Bioassay records: PubChem BioAssay, Fisher Drug Discovery Resource Center
NPYLR7 agonist: agonists of mosquito NPYLR7 receptor, primary screen, cell-based, Aedes aegypti, calcium fluorescence, mosquito biting behavior. HEK293T NPYLR7/Galpha15, GCaMP6s calcium fluorescence. activation, % at 10 µM. AID 1259423, 2018. actives 0.15% (n = 270,000). Aedes aegypti neuropeptide Y-like receptor 7 (NPYLR7); in the data active = activation above about 40%;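 note: 0% = vehicle and 100% = reference agonist at the receptor; some compounds past the cut are filed as inactive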
NPYLR7 agonist max-min: further read-out of NPYLR7 agonist, marked with its call; activation, %; measured here: Max-Min RFU normalised activation; some inactives read as strong as hits;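 span of the calcium signal over five minutes; 0% = vehicle and 100% = native peptide agonist; compound fluorescence can raise it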
* marks the source's active call; other numbers are inactive results; & = joins results of further samples. An excerpt (hit frequency here may not be typical).

# | molecule | NPYLR7 agonist max-min | NPYLR7 agonist
1 | Cc1nc2c(OCC(=O)N(C)C)cccn2c1N(C)C(=O)CCC1CCCC1 | -5 | 8
2 | Cc1ccc(Cl)c2sc(N3CCN(C(=O)C4=COCCO4)CC3)nc12 | -2 | 0
3 | CCOC(=O)CCCSc1nnc(-c2ccncc2)n1-c1cccc(C(F)(F)F)c1 | 16 | 2
4 | Cc1onc(-c2ccccc2)c1C(=O)N1CCC(O)(CN(C)C)C1 (stereo not drawn) | 4 | 5
5 | CCc1cnc2c(c1SCc1ccccc1Cl)c(=O)n(C)c(=O)n2C | 4 | 3
6 | S=c1[nH]nc(C2C3CCCCC32)n1-c1c(Cl)cccc1Cl (stereo not drawn) | -7 | 0
7 | Cc1c(C(=O)O)sc2nc(-c3ccccc3)cn12 | 11 | 0
8 | Cc1occc1C(=O)NNC(=O)NC(C)c1ccc(Cl)cc1 (stereo not drawn) | 8 | 8
9 | COCCNC(=O)c1cccc(CSc2nc(COC)cc(N(C)Cc3ccccc3)n2)c1 | -2 | -4
10 | Cc1noc(C)c1N(C)CC(=O)Nc1sc(C)c(C)c1C#N | -3 | -1
11 | Cc1ccc(Cl)cc1NC(=O)C(c1cccc(F)c1)N1CCOCC1 (stereo not drawn) | -3 | -3
12 | CCc1ccc(OCC(=O)NNC(=O)COc2cc(C(C)C)ccc2C)cc1 | -7 | -4
13 | CCn1cc(NC(=O)c2cc(Cl)c(Cl)n2C)ccc1=O | 0 | 1
14 | Clc1cccc(CN2CCN(Cc3ccc4nsnc4c3)CC2)c1 | 8 | 9
15 | O=C(NNc1nc(-c2ccccc2)c2cc(Br)ccc2n1)c1ccc(Cl)cc1 | 7 | -6
16 | O=S(=O)(c1ncn[nH]1)N1CCOCC1 | 1 | 0
17 | CCCN(CC(=O)Nc1cc(-c2ccccc2)nn1-c1ccc(F)cc1)C(=O)COc1ccccc1 | 3 | -3
18 | O=C(Cn1cnc([N+](=O)[O-])n1)N/N=C\c1cc(Br)cc(Br)c1O | -14 | -8
19 | O=C(CCC(=O)N1CCc2ccccc2C1)NCc1ccncc1 | -20 | -15
20 | CCOc1cccc(C2CC(=O)Nc3n[nH]c(C4CCC4)c32)c1O (stereo not drawn) | 0 | 2
21 | CCN1CCN(c2nc(CSc3nccc(C)n3)cc(=O)[nH]2)CC1 | -1 | 2
22 | O=C(CSc1nnc2ccccn12)Nc1c(Cl)c(Cl)cc(Cl)c1Cl | -11 | -6
23 | Cc1cc(Cl)ccc1N1CCN(C(=O)c2ccco2)C(C)C1=O (stereo not drawn) | -1 | 2
24 | CCN(CC)c1cc(-c2ccccc2)nc(SCc2ccc(C(=O)NCc3cccnc3)cc2)n1 | 2 | -1
25 | O=S(=O)(NCc1cccc(I)c1)N1CCCCC1 | 7 | 2
26 | CC1(C(=O)O)Sc2[nH]c(=O)sc2C2c3ccccc3OC(=O)C21 (stereo not drawn) | 8&5 | 6&5
27 | Cc1nn(CCC(N)=S)c2nc(-c3ccccc3)ccc12 | -2 | -1
28 | CCOC(=O)c1c(C)n(-c2ccccc2)c2ccc(OC(=O)C(C)(C)C)cc12 | -11 | -5
29 | CN(CC1CCN(CCc2ccc(F)cc2)CC1)C(=O)c1cc(C2CC2)nc2ccccc12 | 3 | 11
30 | COc1ccc(N2CCN(c3nc(SCc4cccc(C(=O)N5CCCC5)c4)nc(C)c3C)CC2)cc1 | 10 | -1

(further entries)
# | molecule | NPYLR7 agonist max-min | NPYLR7 agonist
31 | CN1CCN(C(CNS(=O)(=O)c2ccccc2)c2cccnc2)CC1 (stereo not drawn) | 2 | 5
32 | CCc1nc(CC#N)nc(N2CCN(C(=O)N(C)C)CC2)c1Cc1cccc(C)c1 | 10 | -1
33 | COc1ccc(-n2ccnc2[C@@H]2C[C@H](NC(C)=O)C[C@H](CC(C)C)O2)cc1 | 12 | 1
34 | Cc1nonc1OCCNC(=O)c1cccc2ccnn12 | 5 | 7
35 | CCC(=O)N(Cc1ccc(Cl)cc1)C(C)CC (stereo not drawn) | 2 | 6
36 | CCC(C)N(Cc1ccc(OS(=O)(=O)CC)cc1)C(=O)Nc1ccc(C(C)C)cc1 (stereo not drawn) | 10 | 6
37 | O=C(NCCCn1ccnc1)c1cc2nc(-c3ccccc3)cc(C(F)(F)F)n2n1 | -12 | -8
38 | Cc1ccc(C2(O)CCN(Cc3ccccc3OCc3ccccc3)CC2)nc1 | 5 | 6
39 | CCn1nc(C)c(Br)c1C(=O)N1CCN(CCCOC(c2ccc(Cl)cc2)c2ccc(Cl)cc2)CC1 | 2 | 3
40 | Cn1c(=NN=Cc2ccc(OC(F)F)cc2)sc2ccccc21 | 0 | 2
41 | CC1CCc2sc3ncnc(Nc4ccc(N(C)C)cc4)c3c2C1 (stereo not drawn) | 12 | 15
42 | Cc1ccccc1Cn1c(=O)c2c(nc3n(CCN4CCOCC4)c(C)cn23)n(C)c1=O | -4 | -3
43 | CCSc1nnc(SCC(=O)c2cc(C)n(Cc3ccco3)c2C)s1 | 4 | 0
44 | Cc1ccc(-n2nc(C(C)(C)C)cc2NC(=O)CN(Cc2ccccc2)C(=O)Nc2c(Cl)cccc2Cl)cc1 | 5 | -1
45 | C=C(C)Cn1c(=O)c2c(nc3n(CC4CCCO4)c(C)cn23)n(C)c1=O (stereo not drawn) | 7 | 8
46 | CCc1nc(C)ccc1OCC(=O)N1C[C@@H]2[C@@H]3CC[C@@H](C3)[C@@H]2C1 | 1 | 1
47 | CCOc1ncccc1C(=O)N(Cc1nccn1C)C1CC1 | 5 | 8
48 | CC(C)n1cc(C(=O)N2CCC(CO)(Cc3cccc(C(F)(F)F)c3)CC2)cn1 | -1 | 3
49 | CCOC(=O)c1ccc2c(c1)nc(SCc1cccc(C(=O)OC)c1)n2Cc1ccccn1 | -10 | -7
50 | CCOC(=O)C1CCCN(C2CCN(c3ccc(C(=O)NCCN4CCOCC4)cc3)CC2)C1 (stereo not drawn) | 0 | 5
51 | CCSCC(C)NCc1nc(-c2cccnc2)no1 (stereo not drawn) | 1 | 3
52 | Cc1nn(CN(CCC#N)CCC#N)c(=S)s1 | -3 | 2
53 | CCC(C)NC(=O)c1cnc(N2CCN(c3ccccc3[N+](=O)[O-])CC2)nc1OC (stereo not drawn) | 5 | 4
54 | CCN(CC)CCn1cc(-c2cccc(O)c2)nn1 | 5 | 9
55 | CC(C)(O)C#Cc1cccc(C(=O)NCc2ccccc2-n2cccn2)c1 | 1 | 2
56 | Cc1nnc2ccc(OCCNS(=O)(=O)c3ccc(F)c(Cl)c3)nn12 | 4 | 3
57 | COc1cc(OC)nc(C(NC(=O)C2CCN(Cc3ccc4ccccc4n3)CC2)c2ccc(F)cc2)n1 (stereo not drawn) | -19 | -16
58 | CCC(NC(=O)Nc1cc(S(=O)(=O)N(C)C)ccc1C)c1ccc(C)cc1 (stereo not drawn) | 6 | 8
59 | Cc1cc2cccc(C(=O)N3CCC4(CCC(=O)N(C)CC4)CC3)c2o1 | 2 | 4
60 | CCOC(=O)N1CCN(C(=O)Cn2nnnc2CN2CCCC2)CC1 | -6&-5 | -4&-1

Continued:
# | molecule | NPYLR7 agonist max-min | NPYLR7 agonist
61 | CCc1ccc(CN(C)c2nccc(N3CCC(O)C3)n2)nc1 (stereo not drawn) | 2 | 8
62 | CCn1c(C2CCCN(Cc3coc(-c4ccccc4)n3)C2)nn(C)c1=O (stereo not drawn) | 2 | 1
63 | CCC(CO)N(Cc1ccco1)C(=O)c1cc2ccccn2n1 (stereo not drawn) | -4 | -2
64 | Cc1nc(CN2CCC=C(CCNC(=O)N3CCOCC3)C2)no1 | 15 | 23
65 | COCCOc1ccc(C(F)(F)F)cc1NC(=O)c1ccoc1C | 3 | 10
66 | C=C(C)C(O)(C(=C)C)c1ccc(CN(CCN2CCOCC2)Cc2cccc(OC)c2OC)o1 | -2 | -9
67 | COc1ncnc(NS(=O)(=O)c2ccc(N)cc2)c1OC | 4 | 18
68 | COC(=O)[C@@H]1C[C@H](C(=O)NCc2cccnc2)[C@H](c2cccc(F)c2F)N1C | -5 | 0
69 | O=C(c1ccc(OC(F)F)cc1)N1CCOC(Cc2ccccc2)C1 (stereo not drawn) | 23 | 6
70 | CCOC(=O)c1c(N)sc(C(N)=O)c1C | 5 | 5
71 | CC(C)COC(=O)N1CCn2c(nnc2C(=O)N2CCOCC2)C1 | 5 | 7
72 | O=C1N(CCCc2ccccc2)CCCC12CCN(c1cnccn1)C2 (stereo not drawn) | 3 | 4
73 | COc1ccc(-c2ccccc2NC(=O)C2CCCN(Cc3ccoc3)C2)cc1 (stereo not drawn) | 4 | 7
74 | COCCCn1cc(C(=O)O)c2nn(-c3ccccc3)c(=O)c-2c1 | -6 | -5
75 | COc1ccc(CN2CCN(Cc3cc(C(C)C)n[nH]3)CC2CCO)c(C)c1C (stereo not drawn) | -9 | -8
76 | O=C(CCc1ccc2c(c1)OCO2)N1CCN(c2ccccc2F)CC1 | -1 | 4
77 | Cc1cc2c(o1)CC(C)(C)CC2NC(=O)NCc1ccccn1 (stereo not drawn) | -1 | 1
78 | CCOC(=O)C1(Cc2ccccc2F)CCCN(C(=O)C(=O)c2ccco2)C1 (stereo not drawn) | -9 | -7
79 | CNC(=O)CC1C(=O)N(C)C(=S)N1NC(=O)c1cccc(F)c1 (stereo not drawn) | -12 | -7
80 | COc1cc([N+](=O)[O-])ccc1-c1ccc(/C=C2\C(=O)N(c3ccc(C(=O)O)cc3)N=C2C)o1 | -11 | -6
81 | CC1(C)Cc2ccccc2-c2nnc(C(F)(F)C(F)F)n21 | -2 | 2
82 | CCOC(=O)c1ccccc1NC(=O)CSc1nc2[nH]ncc2c(=O)[nH]1 | -4 | -2
83 | Cn1cc(Br)c(C(=O)Nc2cccc(C(F)(F)F)c2)n1 | -10 | 3
84 | COc1cccc(/C=C/C(=O)Nc2ccccc2C(C)(C)C)c1OC | 12 | 2
85 | O=C(NCC(c1ccc(Cl)cc1)n1cccn1)c1ccc[nH]1 (stereo not drawn) | 224 | 1
86 | Cc1cc2c(=O)n(C)c(SCC(=O)Nc3ccccc3F)nc2s1 | -11 | -11
87 | CC(=O)N1N=C(N)SC1c1ccccc1 (stereo not drawn) | -18 | -11
88 | Cc1cc(C)n(C2CCN(Cc3cn[nH]c3-c3ccc(F)cc3)C2)n1 (stereo not drawn) | 2 | 3
89 | COc1cccc(CN2CC(C(=O)N(C)Cc3nc4ccc(F)cc4[nH]3)CCC2=O)c1 (stereo not drawn) | -5 | 0
90 | CCC(CC)CC(=O)N1CCC1c1ccc(F)cc1 (stereo not drawn) | -9 | 3
91 | COc1ccc(CCN2CCCn3c2nc2c3c(=O)n(CC(C)C)c(=O)n2C)cc1OC | 15 | -1
92 | O=S(=O)(NNc1c(F)c(F)c(F)c(F)c1F)c1ccccc1 | -2 | 2

In the list so far, 15 have a Cl atom:
# | molecule | NPYLR7 agonist max-min | NPYLR7 agonist
2 | Cc1ccc(Cl)c2sc(N3CCN(C(=O)C4=COCCO4)CC3)nc12 | -2 | 0
5 | CCc1cnc2c(c1SCc1ccccc1Cl)c(=O)n(C)c(=O)n2C | 4 | 3
6 | S=c1[nH]nc(C2C3CCCCC32)n1-c1c(Cl)cccc1Cl (stereo not drawn) | -7 | 0
8 | Cc1occc1C(=O)NNC(=O)NC(C)c1ccc(Cl)cc1 (stereo not drawn) | 8 | 8
11 | Cc1ccc(Cl)cc1NC(=O)C(c1cccc(F)c1)N1CCOCC1 (stereo not drawn) | -3 | -3
13 | CCn1cc(NC(=O)c2cc(Cl)c(Cl)n2C)ccc1=O | 0 | 1
14 | Clc1cccc(CN2CCN(Cc3ccc4nsnc4c3)CC2)c1 | 8 | 9
15 | O=C(NNc1nc(-c2ccccc2)c2cc(Br)ccc2n1)c1ccc(Cl)cc1 | 7 | -6
22 | O=C(CSc1nnc2ccccn12)Nc1c(Cl)c(Cl)cc(Cl)c1Cl | -11 | -6
23 | Cc1cc(Cl)ccc1N1CCN(C(=O)c2ccco2)C(C)C1=O (stereo not drawn) | -1 | 2
35 | CCC(=O)N(Cc1ccc(Cl)cc1)C(C)CC (stereo not drawn) | 2 | 6
39 | CCn1nc(C)c(Br)c1C(=O)N1CCN(CCCOC(c2ccc(Cl)cc2)c2ccc(Cl)cc2)CC1 | 2 | 3
44 | Cc1ccc(-n2nc(C(C)(C)C)cc2NC(=O)CN(Cc2ccccc2)C(=O)Nc2c(Cl)cccc2Cl)cc1 | 5 | -1
56 | Cc1nnc2ccc(OCCNS(=O)(=O)c3ccc(F)c(Cl)c3)nn12 | 4 | 3
85 | O=C(NCC(c1ccc(Cl)cc1)n1cccn1)c1ccc[nH]1 (stereo not drawn) | 224 | 1
